# Ecoli rRNA inh: inhibitors of bacterial rRNA selective over humanized ribosomes | E. coli WT GFP vs humanized-ribosome RFP mutants, fluorescence, 24 h; active compounds read low; DMSO median 0, no signal -100 | GFP signal change (wild-type ribosome), % (concentration not given with the values) | 350,000 tested, 1.6% active;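 active = significant combined selectivity score with lowered wild-type GFP, culture density cut under 30%, mutant RFP and density less affected; inactive = any of these conditions unmet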; also: one replicate is shown; some compounds called inactive have numbers as strong as hits
# Ecoli growth: blocks Escherichia coli growth; OD600, 23 h; active compounds read low; OD600 absorbance (test concentration not listed); 330,000 tested, 0.21% active;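 active = OD600 absorbance below the run mean of sample wells minus 3.6 SD, in any replicate, cut at about 0.56 in these data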;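 also: stock transfer was 300 nL into about 60 µL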
# HNF4A DNA FP: change in binding of human HNF4 alpha to DNA. HNF4a-FITC DNA binding, fluorescence polarization, 1 h. activity change, % at 10 µM. 360,000 tested, 0.3% active. AID 1224865; in the data active = activity change above about 30%, passing the limit was not always enough;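 also: controls were the assay level and a saturating level of protein; the project sought stronger binding though the title names inhibitors; some compounds called inactive have numbers as strong as hits; positive values seem to mean higher polarization but the record does not say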
# Target sequence (P41235 whole entry, looked up): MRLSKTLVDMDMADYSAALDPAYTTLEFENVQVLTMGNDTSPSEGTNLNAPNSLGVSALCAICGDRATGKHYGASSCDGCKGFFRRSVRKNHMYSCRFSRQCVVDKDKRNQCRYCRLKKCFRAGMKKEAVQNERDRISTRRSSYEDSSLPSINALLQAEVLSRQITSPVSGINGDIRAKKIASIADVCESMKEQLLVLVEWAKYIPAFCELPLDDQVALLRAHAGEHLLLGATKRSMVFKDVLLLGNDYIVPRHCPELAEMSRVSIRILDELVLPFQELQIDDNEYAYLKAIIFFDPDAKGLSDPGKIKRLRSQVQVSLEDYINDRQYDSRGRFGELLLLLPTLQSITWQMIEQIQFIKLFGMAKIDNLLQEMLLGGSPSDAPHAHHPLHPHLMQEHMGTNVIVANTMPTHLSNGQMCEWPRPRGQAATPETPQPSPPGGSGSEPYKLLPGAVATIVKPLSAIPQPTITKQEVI
# Vif A3G: inhibitors of Vif binding to APOBEC3G peptide, primary screen, biochemical, TR-FRET, GST-Vif 1-94, biotin-A3G peptide, dose response retest (AID 1117319); TR-FRET GST-Vif / biotin-A3G peptide binding; higher % means a stronger effect; test concentration not given here; strong numbers were not always called active; inhibition, %; hits with a dose series show IC50 in µM; 260,000 tested, 0.57% active;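 active = above the screen mean plus three standard deviations and confirmed in dose response; inconclusive = results disagree or hit not tested in dose response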;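 also: Vif residues 1-94 fused to GST binding biotinylated APOBEC3G peptide 110-148; 0% = full assay without inhibitor and 100% = GST in place of GST-Vif; retest series ran down from 100 µM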
# MLL AF4-AF9 inh: inhibitors of human MLL-AF4/AF9 interaction | inhibition, % at 10 µM | AID 651704 | 350,000 tested, 0.47% active | P42568 | AlphaScreen, biotin-AF4 peptide binding to FLAG-AF9;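 active = every replicate reaching a set inhibition limit, whatever the replicate mean, cut at about 25% in these data; inconclusive = mean inhibition reaches that limit but some replicates miss it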;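 also: 0% = plate neutral control median and 100% = total signal loss; the record names both 10 and 1 µM as test concentration; the first replicate is given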
# ALR inh: inhibitors of human sulfhydryl oxidase ALR | P55789 | purified ALR, DTT oxidation, H2O2 HRP-luminol luminescence | inhibition, % (no concentration beside the values) | 290,000 tested, 3.8% active;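 active = mean and each replicate at 75% or more; inconclusive = only one of the two met; inactive = neither met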;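 also: stock transfer was 7.5 nL into about 7.5 µL; 0% = neutral wells and 100% = wells with inactivated enzyme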
# Target sequence (P55789 whole entry, looked up): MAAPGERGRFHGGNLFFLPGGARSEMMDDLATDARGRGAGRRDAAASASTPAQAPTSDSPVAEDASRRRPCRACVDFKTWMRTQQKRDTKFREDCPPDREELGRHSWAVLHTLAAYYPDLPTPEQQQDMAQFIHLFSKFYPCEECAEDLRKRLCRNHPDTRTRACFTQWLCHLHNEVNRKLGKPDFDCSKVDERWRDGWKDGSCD
# FGF22 binding: binders of recombinant human FGF22 by thermal shift | calls only at 9.99 µM | SYPRO orange fluorescence; percent of sucrose octasulfate shift, DMSO zero | AID 651658 | 340,000 tested, 1.5% active;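 active = melting point raised past a set limit in the mean and every replicate; inconclusive = no clear call; three in four hits are not shown here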
# Target sequence (Q9HCT0 whole entry, looked up): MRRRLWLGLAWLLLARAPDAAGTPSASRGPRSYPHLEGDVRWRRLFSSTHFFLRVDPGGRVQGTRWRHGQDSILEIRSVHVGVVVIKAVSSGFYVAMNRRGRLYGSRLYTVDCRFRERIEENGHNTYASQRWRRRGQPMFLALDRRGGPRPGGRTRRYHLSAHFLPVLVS
# Ecoli rRNA inh OD600: also measured in Ecoli rRNA inh; calls as there; OD600 change, %; measured here: OD600 growth;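 optical density of the mix in the first replicate; 0 = DMSO median and -100 = no signal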
# Ecoli rRNA inh RFP: also measured in Ecoli rRNA inh; calls as there; RFP signal change, %; measured here: RFP humanized mutant strains;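 first replicate; 0 = DMSO median and -100 = no signal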
# * marks the source's active call; other numbers are inactive results; i = inactive; ? = inconclusive; · = no result given.
item	Ecoli rRNA inh	Ecoli rRNA inh OD600	Ecoli rRNA inh RFP	Ecoli growth	HNF4A DNA FP	Vif A3G	MLL AF4-AF9 inh	ALR inh	FGF22 binding	SMILES
1	-7.4	-9.8	-1.6	0.687	-2.8	·	2.3	14.5	i	COc1ccc(N2CCN(C(=O)c3ccc(N4CCCCS4(=O)=O)cc3)CC2)cc1
2	-2.8	3.4	-1.1	·	·	·	0.3	·	i	CCCN1[C@H](C(=O)NCC)[C@@H](CO)[C@@H]2Cn3c(ccc(-c4ccc(OC)cc4)c3=O)[C@@H]21
3	5.5	-21.6	16.3	·	·	·	2.4	·	i	C[C@H](CO)N1C[C@H](C)[C@@H](CN(C)CC2CCCCC2)Oc2c(NC(=O)NC3CCCCC3)cccc2C1=O
4	-22.7	-25.9	7.9	0.594	6.0	·	-10.2	58.7	i	Cc1csc(NC(=O)CSc2ncc(-c3ccccc3)[nH]2)n1
5	·	·	·	0.694	2.6	·	3.6	3.5	i	COC(=O)c1c(NC(=O)COC(=O)CCS(=O)(=O)c2ccc(C)cc2)sc(C)c1C
6	-18.5	-35.0	-0.2	0.643	4.8	-9.1%	-1.0	-11.1	i	C=CCn1c(Cc2ccccc2)nc2c(cnn2-c2ccccc2)c1=O
7	-3.1	0.6	-0.9	·	·	·	-12.4	·	i	CCC(=O)N(C)C[C@@H]1Oc2ncc(C#Cc3ccccc3OC)cc2C(=O)N([C@@H](C)CO)C[C@@H]1C
8	34.0	20.8	1.0	·	2.0	·	-1.2	·	i	CC1NS(=O)(=O)c2cc([N+](=O)[O-])ccc21 (configuration not stated)
9	·	·	·	0.702	5.8	74.9%	·	-1.0	·	CCC(C)NS(=O)(=O)c1ccc(S(=O)(=O)N(CC(=O)Nc2ccccc2)CC2CCCO2)cc1 (configuration not stated)
10	9.0	6.1	1.1	0.699	1.4	-2.9%	8.6	·	i	CCC(=O)c1ccc(OCC(=O)OC(C)C(=O)Nc2c(C)n(C)n(-c3ccccc3)c2=O)cc1 (configuration not stated)
11	8.9	2.3	1.3	0.716	4.6	4.4%	-51.8	6.1	i	O=C(O)/C(=C\c1cn(-c2ccccc2)nc1-c1ccc(Cl)cc1)NC(=O)c1ccccc1
12	10.9	15.0	1.0	0.696	-6.2	12.0%	0.6	0.1	i	Cc1ccc(C(=O)NNC(=O)CCn2nnc3ccccc32)cc1
13	-60.4	-79.2	-18.6	·	1.1	-1.6%	-1.8	·	·	COc1ccc2c(c1)Cc1cc(NC(=O)c3ccccc3-c3ccccc3C(=O)O)ccc1-2
14	0.5	-2.3	0.7	0.655	1.8	3.5%	2.8	-2.2	i	COc1ccc(N2CC(C(=O)Nc3ccc(S(=O)(=O)N4CCCCC4)cc3)CC2=O)cc1 (configuration not stated)
15	-3.4	-22.6	24.9	·	·	·	13.5	·	i	C[C@@H]1CN([C@H](C)CO)S(=O)(=O)c2ccc(C#CCN(C)C)cc2O[C@H]1CN(C)Cc1ccc2c(c1)OCO2
16	-15.2	-9.8	-1.4	0.683	-1.5	5.6%	-0.6	-2.3	i	COC(=O)c1ccc(NS(=O)(=O)c2cc(-c3cc(C)no3)ccc2OC)cc1
17	-1.6	0.6	2.2	0.673	1.5	·	-6.2	3.2	i	Cc1cc2oc(=O)sc2cc1NS(=O)(=O)c1cccc2cccnc12
18	9.5	8.8	0.5	0.672	0.9	-4.7%	7.0	·	i	Cc1ccc2c(c1)N(CC(=O)N1CCCC1)C(=O)CO2
19	-5.5	-11.2	-3.1	·	1.5	-5.7%	1.2	-4.1	i	C/C(=N/Nc1ccc(Cl)cc1)c1cnnc(-c2ccccc2)n1
20	6.5	7.2	-0.1	0.692	-2.1	5.8%	0.8	1.8	i	CC(=O)Nc1ccc(C(=O)OCC(=O)NCc2ccccc2)cc1
21	10.6	1.4	3.1	·	10.7	?	-8.2	-6.4	i	COCCCn1c(=O)/c(=C\c2ccccc2OC(F)F)s/c1=C(/C#N)C(=O)NCCOC
22	2.7	1.2	-9.5	0.757	-0.7	-2.2%	5.5	·	i	CN(CC(O)COc1ccc(S(=O)(=O)N2CCOCC2)cc1Cl)C1CCCCC1 (configuration not stated)
23	2.2	-6.9	1.5	·	·	·	11.7	·	i	C[C@@H]1CCCCO[C@@H](CN(C)Cc2ccc3c(c2)OCO3)[C@@H](C)CN([C@@H](C)CO)C(=O)c2cc(NC(=O)Nc3ccc4c(c3)OCO4)ccc2O1
24	1.2	2.3	-1.3	·	·	·	-0.3	·	i	CCNC(=O)C[C@H]1CC[C@H](NC(=O)C2CC2)[C@H](CO)O1
25	9.8	19.3	4.8	·	-6.9	·	-1.7	-12.8	·	CCOC(=O)CNC(=O)c1c(C)nn(C)c1Cl
26	·	·	·	0.711	3.1	8.6%	·	-4.3	·	CC(C)c1ccc(Cc2nnc(NCCCO)[nH]c2=O)cc1
27	-7.3	-38.5	3.9	0.709	4.0	·	-2.9	0.3	·	COc1ccc2nc(NC(=O)[C@@H]3CCCN3C(=O)c3cccs3)sc2c1
28	·	·	·	0.72	6.4	1.5%	-5.0	11.2	i	CCn1ccnc1CN(C)C(=O)c1cc(COc2ccccc2SC)on1
29	4.3	-1.9	1.7	·	-0.2	·	-8.1	·	i	COc1cccc(CNC(=O)[C@@H]2CCCN2C(=O)[C@H]2CCCCN2C(=O)OC(C)(C)C)c1
30	0.4	-2.7	0.4	0.728	-1.3	·	-2.6	·	i	COc1ccc(CNC(=O)CC23CC4CC(CC(C4)C2)C3)cc1
31	·	·	·	0.709	-2.8	10.0%	·	-9.3	·	Cc1cccc(C)c1NC(=O)c1ccc(CN2CCc3ccccc3C2)cc1
32	5.4	5.6	-4.6	·	-0.1	·	-4.6	·	i	CC1=C(C(=O)N2CCOCC2)CC(CC(=O)NCCCN(C)C)C(=O)N1Cc1ccc(F)cc1 (configuration not stated)
33	3.6	6.6	0.3	0.677	-2.5	·	-1.3	·	i	CSc1ncccc1C(=O)OCC(=O)c1ccc[nH]1
34	6.5	15.3	14.3	0.684	6.3	·	-3.9	·	·	CCOC(=O)N1CCN(C(=O)c2cc(OC)c(OC)c(OC)c2)CC1
35	-3.1	4.7	-3.8	0.677	-4.5	·	2.2	2.2	i	CNC(=O)COc1coc(CN2CCN(c3ccc(F)cc3)CC2)cc1=O
36	-20.5	-36.6	-4.2	0.676	4.2	·	4.3	·	i	COc1ccc(OC)c(-c2csc(NC(=O)Cc3ccccc3F)n2)c1
37	-0.6	8.3	0.1	·	·	·	0.5	·	i	N#C[C@@H]1[C@@H](c2ccc(C#Cc3cccnc3)cc2)[C@@H](CO)N1C(=O)C1CCC1
38	·	·	·	·	-6.4	-1.1%	·	-4.3	·	CNCCCOc1cccc(OC(C)C)c1
39	-0.4	-2.3	-0.3	0.698	-3.6	2.1%	-16.6	-1.5	i	COC(=O)c1ccsc1NC(=O)CS(=O)(=O)c1ccccc1
40	-2.1	-4.1	-13.4	0.749	2.2	-3.0%	3.6	0.8	i	CCOC(=O)c1ccccc1NC1c2ccccc2C(=O)N1c1cc(C)ccn1 (configuration not stated)
41	11.2	1.9	-1.4	0.651	-0.2	·	0.0	-3.3	i	CN(CC(=O)NCc1ccco1)S(=O)(=O)c1ccc(F)cc1
42	4.7	4.8	8.3	0.7	-4.0	·	0.4	-1.0	i	NC(=O)CC(NC(=O)Cc1cccc2ccccc12)c1ccc(NCc2ccccn2)c([N+](=O)[O-])c1 (configuration not stated)
43	·	·	·	0.687	4.9	13.0%	·	-8.1	·	CCN(CC)C(=O)Cn1nnc(-c2ccc(C)o2)n1
44	·	·	·	0.72	-0.5	·	·	37.0	·	O=C(C1CCCN1S(=O)(=O)c1cccc2nsnc12)N1CCN(c2ccccc2)CC1 (configuration not stated)
45	-4.1	-16.3	-0.4	·	-2.5	·	-0.5	·	i	CC(=O)c1cccc(-c2ccc3c(c2)C(C)(Cc2ccc(S(C)(=O)=O)cc2)C(=O)N3)c1 (configuration not stated)
46	15.6	16.9	4.0	0.672	0.2	·	-0.5	-6.6	i	Cc1ccc(S(=O)(=O)N(C)CC(=O)NCCCn2ccnc2)cc1
47	·	·	·	0.695	-0.2	?	·	-22.7	·	COc1ccc(NC(=O)CC2CCCCC2)cc1OC
48	10.6	20.9	-0.7	·	0.5	0.3%	0.0	·	i	N#CCN(C(=O)CSc1nnc(C2CC2)n1C1CC1)c1ccccc1
49	·	·	·	·	-0.3	-1.1%	-0.7	0.4	i	Cc1ccc(C)c(C(=O)OCC(=O)Nc2cccc(S(=O)(=O)N3CCCCC3)c2)c1
50	·	·	·	0.732	-66.6	?	·	-65.6	·	CCN1CC=C2C(C#N)=C(N)C(C#N)(C#N)[C@H](c3ccoc3)[C@H]2C1
51	·	·	·	0.774	3.8	5.0%	·	7.7	·	COc1ccc(CCN2C(=O)c3[nH]nc(-c4ccccc4O)c3C2c2cccc(Cl)c2)cc1 (configuration not stated)
52	-7.9	-5.9	9.0	0.685	-1.9	·	1.8	·	i	Cc1ccc(S(=O)(=O)NCCCNS(=O)(=O)c2ccccc2Br)cc1
53	-26.1	-49.5	11.9	·	-0.6	·	-1.4	·	i	OC(c1cccc(Cl)c1)c1nc(-c2cnc3ccccc3c2)cs1 (configuration not stated)
54	5.7	-6.1	4.8	·	3.3	-9.9%	0.8	0.2	i	O=C(O/N=C1\C(=O)N(c2ccccc2)c2ccccc21)C1CC1
55	·	·	·	0.72	2.8	-6.4%	·	-21.2	·	CC1CCN(c2nc(-c3ccccc3)cc(C(F)(F)F)n2)CC1
56	-17.8	-14.3	-2.3	0.711	-1.1	5.9%	4.7	-1.5	i	CCC(=O)c1ccc(N2CCN(C(=O)c3cc([N+](=O)[O-])ccc3F)CC2)c(F)c1
57	3.5	5.1	-0.4	·	·	·	-1.9	·	i	CNC[C@H]1Oc2c(NS(C)(=O)=O)cccc2C(=O)N([C@H](C)CO)C[C@H]1C
58	21.4	15.1	3.1	0.67	-0.2	-3.4%	-0.3	-13.7	i	O=C(C1=C(O)C(=O)N(Cc2cccnc2)C1c1ccccn1)c1cccs1 (configuration not stated)
59	3.7	8.2	-0.3	0.636	1.7	-1.1%	-6.0	-4.0	i	Nc1no[n+]([O-])c1-c1ccccc1
60	2.1	-7.9	-4.3	·	-1.0	·	-3.0	·	i	CC1(C(=O)NCC2CC2)Cc2c(-c3ccccc3)ccnc2O1 (configuration not stated)
61	-1.7	-6.6	-6.0	0.634	-1.6	?	-54.8	-30.9	i	O=C1NC(c2ccncc2)Nc2sc3c(c21)CCCC3 (configuration not stated)
62	15.6	13.3	0.0	0.678	1.6	-6.5%	1.5	·	i	CCCNC(=O)C1CC(=O)N(c2ccc(OCC(=O)Nc3cc(C)cc(C)c3)cc2)C1 (configuration not stated)
63	·	·	·	0.743	3.7	-3.2%	·	-4.4	·	Cc1nc2sc(C(c3cccc(F)c3)N3CCCCC3)c(O)n2n1 (configuration not stated)

# 4 structures out of the list, ordered by count of non-hydrogen atoms, ascending.
item	Ecoli rRNA inh	Ecoli rRNA inh OD600	Ecoli rRNA inh RFP	Ecoli growth	HNF4A DNA FP	Vif A3G	MLL AF4-AF9 inh	ALR inh	FGF22 binding	SMILES
47	·	·	·	0.695	-0.2	?	·	-22.7	·	COc1ccc(NC(=O)CC2CCCCC2)cc1OC
54	5.7	-6.1	4.8	·	3.3	-9.9%	0.8	0.2	i	O=C(O/N=C1\C(=O)N(c2ccccc2)c2ccccc21)C1CC1
53	-26.1	-49.5	11.9	·	-0.6	·	-1.4	·	i	OC(c1cccc(Cl)c1)c1nc(-c2cnc3ccccc3c2)cs1 (configuration not stated)
62	15.6	13.3	0.0	0.678	1.6	-6.5%	1.5	·	i	CCCNC(=O)C1CC(=O)N(c2ccc(OCC(=O)Nc3cc(C)cc(C)c3)cc2)C1 (configuration not stated)

# An excerpt. The share of hits here may be higher or lower than overall.
